Tg IFNy HTS: blocks Toxoplasma gondii growth in the presence of IFN-gamma | Toxoplasma gondii growth in IFN-gamma-treated host cells; hits give low values; reference of the scale not given here | activity change, negative = inhibition, %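 (about 20 µM by stock and volumes)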 | 3.8% of 69,000 active | AID 1259416;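 active means below -70%; inconclusive means fit judged invalid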;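 further: host cells are HeLa cells infected with Toxoplasma gondii; parasite growth read as luciferase light; one replicate is shown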
Numbers without * were called inactive; i = inactive; ? = inconclusive; & = joins results of further samples. An excerpt; count on the stated rates, not on these rows.

item	compound	Tg IFNy HTS
1	Cn1ccc(-c2cc(C(=O)NCCc3cccnc3)c3ccccn23)n1	4
2	O=C(O)CN1CCC2(CC1)CCN2c1ncccn1	-1
3	CCOCCN1C[C@@H](C(=O)NCCc2cccs2)C[C@@H]2OCC[C@@H]21	-9
4	CCSc1nc(CC(=O)NC(C)C(=O)Nc2cc(F)ccc2C)cs1 (stereo unspecified)	5
5	CS(=O)(=O)NCc1ncn2c1CN(C(=O)C1CCCO1)CCC2 (stereo unspecified)	130
6	CC(C)NC(=O)Cn1ncc2c(N3CCN(c4ccccc4)CC3)ncnc21	215
7	CN1C(=O)c2cc(NC(=O)NCc3ccccc3)ccc2OC[C@@H]2O[C@@H](CC(=O)NCC3CCCCC3)CC[C@H]21	-22
8	Cc1nc(-c2cccc(F)c2)nc2c1CN(S(=O)(=O)c1ccc(F)cc1)CC2	-3
9	O=C(CCc1nnc(CCc2c[nH]c3ccccc23)o1)NC1CCCc2ccccc21 (stereo unspecified)	7
10	CC(C)(C)c1cc(CN2CCc3[nH]cnc3C2c2ccccn2)[nH]n1 (stereo unspecified)	-2
11	O=S(=O)(c1ccc(-c2noc(CCc3c[nH]c4ccccc34)n2)cc1)N1CCCC1	-59
12	O=C(c1cccnc1)N1N=C(c2cccs2)CC1c1ccc(F)cc1 (stereo unspecified)	-23
13	CCNC(=O)c1ccccc1-c1cc(OC)ccc1F	5
14	COc1ccc2ccccc2c1CN1CCCC(CNC(C)=O)C1 (stereo unspecified)	-6
15	CN(C)C(=O)c1ccc2ncnc(N3CCCC3)c2c1	7
16	Cc1cc(NC(=O)c2cccc3ccccc23)cc(C)c1OCC(=O)N1CCOCC1	-2
17	Cc1cnc(C(=O)N2CCC3(CC2)CC(c2ccccc2)C(=O)N3)cn1 (stereo unspecified)	3
18	O=C(O)CSc1nc(-c2ccccc2)cc(C(F)F)n1	-53
19	CN(C)C(=O)[C@@H]1[C@@H](CO)[C@@H]2Cn3c(ccc(/C=C/c4ccccc4)c3=O)[C@@H]2N1C(=O)c1cccnc1	1
20	O=C(c1ccc(F)cc1)N1CC(=O)N2[C@H](CO)[C@H](c3ccc(C#CCC4CCCC4)cc3)[C@@H]2C1	-47
21	c1cnc(N2CC[C@@H]3C[C@H](c4ccncn4)O[C@H]3C2)nc1	-63
22	CCCC#Cc1ccc([C@H]2[C@@H](C#N)N(C(=O)CN3CCOCC3)[C@H]2CO)cc1	24
23	O=C1N(CCc2ccccc2)CCCC1(O)CNCc1cccc(F)c1F (stereo unspecified)	-48
24	Cc1cc(C(=O)N2CCC3(CN(C)C(=O)O3)C2)c2c(C)nn(C)c2n1 (stereo unspecified)	7
25	NC(=O)c1ccc(-c2cnn3cccnc23)cc1	-57
26	O=C1[C@@H](Cc2ccc(F)cc2)CCn2cc(nn2)COC[C@H]2CCCN12	-18
27	CCC(C)NCCOc1ccc(C(C)(C)c2ccccc2)cc1 (stereo unspecified)	-7
28	CN(Cc1ncc[nH]1)c1nc(-c2cccnc2)nc2c1cnn2C	-6
29	Cc1ccc2cccc(OCCNC3CCN(C(=O)C(C)C)CC3)c2n1	14
30	CN(C)C(=O)N1CCN(c2ccc3ccc(C(=O)NCCc4cccc(F)c4)cn23)CC1	29
31	CCN1c2cc(C)ccc2-n2cccc2C12CCN(C(=O)c1ccccc1OC)CC2	-62
32	Cn1cnc(CCNC(=O)C[C@H]2CC[C@@H]3[C@H](COC[C@H](O)CN3C(=O)Nc3ccc(C(F)(F)F)cc3)O2)c1	-27
33	Cc1ccc(CNC(=O)CN2C(=O)CCc3cc(S(=O)(=O)N4CCCCC4C)ccc32)o1 (stereo unspecified)	23
34	O=C(CC1CC2(CCN(C(=O)Nc3ccccc3)CC2)Oc2ccccc21)NC1CC1 (stereo unspecified)	4
35	CCn1cncc1CNC(=O)c1cn(CC2CCCNC2)nn1 (stereo unspecified)	-4
36	C=CCn1c(N)c(C#N)c2nc(C#N)c(C#N)nc21	-28
37	COc1ccc(NC(=O)N2C[C@@H](O)COC[C@H]3O[C@@H](CC(=O)N4CCCCC4)CC[C@@H]32)cc1	3
38	O=C(Oc1ccccc1N1CCOCC1)c1sccc1Br	19
39	O=C(c1cc2cccnc2n(Cc2ccccc2)c1=O)N1CCCC1	52
40	Cc1ccc(CN2C[C@@H]3c4nc(N(C)C)ncc4CS(=O)(=O)[C@H]3C2)cc1	7
41	Cc1nc(OCC(=O)Nc2ccccc2)c2ccccc2n1	-7
42	Cc1noc(C[C@@H]2C[C@H]3CN(Cc4ccc(C)o4)C[C@H]3O2)n1	-1
43	COc1ccccc1CN1CC[C@@H]2[C@H]1c1cc(-c3cccc(C(=O)N(C)C)c3)ccc1N[C@@H]2CO	-63
44	O=C(C(=O)N1CCCC1c1nc(-c2ccccc2)no1)c1ccco1 (stereo unspecified)	13
45	COc1cc(OC)cc(C(=O)N2CCC3(CC2)NC(=O)c2ccccc2N3C)c1	69
46	OC[C@H]1[C@@H](c2ccccc2)C2(CN(Cc3ccccn3)C2)N1Cc1cncnc1	12
47	CCOc1cccc(-c2ccc(C(=O)N3CCCC3)cn2)c1	126
48	CS(=O)(=O)c1ccc(-n2ccnc2-c2ccccn2)cc1	3
49	CC(C)CN1CCC(N2CCC(C(=O)N(C)C)CC2)CC1	0
50	O=C(Cc1ccncc1)NCC[C@@H]1CC[C@@H](NS(=O)(=O)c2ccccc2Cl)[C@H](CO)O1	2
51	CC1=NC2(CCC(C(=O)NCc3ccc(F)cc3)CC2)C(=O)N1CC1CC1 (stereo unspecified)	-69
52	Cc1cccc(-c2nc(Cn3c(=O)cc(C(=O)N4CCOCC4)c4ccccc43)c(C)o2)c1	-41
53	O=C(c1cccc(C(F)(F)F)c1)C1CCCN(C(=O)c2scc3c2OCCO3)C1 (stereo unspecified)	3
54	COc1ccc(OC)c(NC(=O)N2CCc3nc(-c4ccc(C)cc4)sc3C2)c1	-112*
55	COc1ccc2c(c1)OCC(CN(Cc1ccccn1)CC1CCCO1)=C2 (stereo unspecified)	29
56	Cc1ccccc1S(=O)(=O)N1CCC2(CC1)Nc1ccc(Cl)cc1-n1cccc12	-25

(more compounds)
item	compound	Tg IFNy HTS
57	CC(C(=O)NC1CC2CCC1C2)N(c1ccc(Oc2ccccc2)cc1)S(C)(=O)=O (stereo unspecified)	-43
58	O=C(C1CCOCC1)N1CCCC[C@H]2CN(Cc3ccccc3)C[C@H]21	-11
59	CN=C(NC#N)NCCSCc1csc(N=C(N)N)n1	12
60	CN(C)CC1(O)CCN(C(=O)c2cccc(-c3ncc[nH]3)c2)C1 (stereo unspecified)	3
61	CCC(=O)Nc1ccc(OCC(=O)N2CCO[C@@H]3CCCC[C@H]32)cc1	-1
62	O=C(NCC1CC1)c1ccn(-c2ccc3ccc(-c4ccc(F)cc4)cn23)n1	12
63	COc1cc(Cl)c(C)cc1NC(=O)Cn1ncc2c(N3CCN(c4ccccn4)CC3)ncnc21	103
64	O=C(c1cc(F)ccc1F)C1CCCN(Cc2cccc(C(F)(F)F)c2)C1 (stereo unspecified)	-26
65	CCN(CCOc1ccccc1)C(=O)C1CCC(O)CC1 (stereo unspecified)	-6
66	O=C(O)c1ccc(OCCn2ccnc2)cc1	10&20
67	COc1cc(COc2cc(N)c(Cl)cc2C(=O)CCC2CCN(CCNS(C)(=O)=O)CC2)cc(OC)c1	-24&-47
68	COc1ccc(-c2nc(CNS(=O)(=O)c3ccc(F)cc3)c(C)o2)cc1	33
69	Cc1noc(C)c1S(=O)(=O)Nc1ccc2c(c1)C(=O)N([C@@H](C)CO)C[C@@H](C)[C@@H](CN(C)C(=O)Nc1cccc3ccccc13)OCCCC[C@@H](C)O2	251
70	CN1CC(=O)N(c2ccsc2)CC12CCN(CC(=O)O)C2 (stereo unspecified)	3
71	CC(=O)N[C@H]1C[C@@H](c2cc(C)cc(F)c2)O[C@@H](C2CCCCC2)C1	1
72	O=C(c1ccoc1)N1CCC2(CC1)CC(OCc1ccccn1)CO2 (stereo unspecified)	1
73	COc1ccc2c3c(n(C)c2c1)[C@@H](CO)N(CC1CC1)CC31CCN(C(=O)c2cccc(F)c2)CC1	-44
74	C[C@@H]1CCCCO[C@H](CN(C)C(=O)C2CCCCC2)[C@H](C)CN([C@H](C)CO)C(=O)c2cc(NS(=O)(=O)c3ccccc3)ccc2O1	-145*
75	CN(CCc1cn[nH]c1)C(=O)CCc1ccc(Cl)cc1	-21
76	COc1cc(O)c2c(=O)cc(C)oc2c1CC=C(C)C	17
77	O=C(NC1CCC12CCN(Cc1ccoc1)CC2)c1cnccn1 (stereo unspecified)	-42
78	C=CCn1cc(CNC23CC4CC(C2)CC(n2nnc(C)n2)(C4)C3)c(C)n1	-3
79	CC(C)COC(=O)C1C(=O)CC(C)(O)C(C(=O)OCC(C)C)C1c1cccnc1 (stereo unspecified)	24
80	COc1ccc(S(=O)(=O)N(C)C[C@H]2Oc3ccc(NC(=O)Cc4cn(C)c5ccccc45)cc3C(=O)N([C@H](C)CO)C[C@H]2C)cc1	-50

Random excerpt: 6 compounds from above
item	compound	Tg IFNy HTS
78	C=CCn1cc(CNC23CC4CC(C2)CC(n2nnc(C)n2)(C4)C3)c(C)n1	-3
76	COc1cc(O)c2c(=O)cc(C)oc2c1CC=C(C)C	17
79	CC(C)COC(=O)C1C(=O)CC(C)(O)C(C(=O)OCC(C)C)C1c1cccnc1 (stereo unspecified)	24
80	COc1ccc(S(=O)(=O)N(C)C[C@H]2Oc3ccc(NC(=O)Cc4cn(C)c5ccccc45)cc3C(=O)N([C@H](C)CO)C[C@H]2C)cc1	-50
75	CN(CCc1cn[nH]c1)C(=O)CCc1ccc(Cl)cc1	-21
73	COc1ccc2c3c(n(C)c2c1)[C@@H](CO)N(CC1CC1)CC31CCN(C(=O)c2cccc(F)c2)CC1	-44

The results go on.
item	compound	Tg IFNy HTS
81	COc1ccc(-c2nc(Cn3ccn4nc(-c5ccc(Cl)cc5)cc4c3=O)c(C)o2)c(OC)c1	150
82	COc1ccc(-c2nnc(-c3nc(Nc4ccc(F)cc4)c4ccccc4n3)o2)cc1	47
83	CCc1ccc2c(c1)cc(CN(C(=S)NCc1ccco1)C1CCCC1)c1nnnn12	-17
84	CCCS(=O)(=O)N1CC[C@@H]2C[C@H](c3ccncn3)O[C@H]2C1	136
85	O=C(c1cncc(F)c1)N1CCCC(CCc2ccc(F)cc2)C1 (stereo unspecified)	2
86	COc1cc2c(cc1OC)CN(Cc1c(C(C)C)[nH]c3ncccc13)CC2	-38
87	O=C(Nc1ccccc1)c1ncoc1-c1ccccc1	-14
88	O=C(Nc1ccc(F)cc1)N1CC[C@H]2CN(Cc3ccncc3)S(=O)(=O)[C@@H]2CC1	-1

Reformatted field by field: 4 of the compounds above
#61 CCC(=O)Nc1ccc(OCC(=O)N2CCO[C@@H]3CCCC[C@H]32)cc1
  Tg IFNy HTS: -1

#62 O=C(NCC1CC1)c1ccn(-c2ccc3ccc(-c4ccc(F)cc4)cn23)n1
  Tg IFNy HTS: 12

#63 COc1cc(Cl)c(C)cc1NC(=O)Cn1ncc2c(N3CCN(c4ccccn4)CC3)ncnc21
  Tg IFNy HTS: 103

#64 O=C(c1cc(F)ccc1F)C1CCCN(Cc2cccc(C(F)(F)F)c2)C1 (stereo unspecified)
  Tg IFNy HTS: -26

The results go on:
item	compound	Tg IFNy HTS
89	Nc1nc(Nc2ccccc2)nc2c1ncn2[C@@H]1O[C@H](CO)[C@@H](O)[C@H]1O	12
90	COc1cccc(-c2ccccc2[C@H]2[C@@H](CO)N(C(=O)Cc3ccccc3)[C@H]2C#N)c1	-47
91	Cc1cc(Cl)cc(Cl)c1CNC(=O)C1CC2(CCNCC2)CN1 (stereo unspecified)	-5
92	CSc1sc(-c2ccnc(SCCS(C)(=O)=O)n2)c(-c2ccccc2)c1C#N	?
93	CN(C)C(=O)c1ccc2c(c1)CN(C(=O)c1cccnc1)C2c1cnco1 (stereo unspecified)	16
94	CC1(C)CC1(CNC(=O)CCC(=O)NC1CCCC1)c1ccccc1 (stereo unspecified)	53
95	O=C(NCc1noc(C2CCCC2)n1)C(=O)c1ccco1	2
96	CN(C)CCn1c2c(ccc1=O)CCN(C(=O)C1CCOC1)CC2 (stereo unspecified)	6
97	Cc1cc(C)cc(-n2ccnc2-c2cnc(N(C)C)nc2)c1	12
98	O=C(Nc1ccc(Br)cc1)N1CCC2(CC1)Nc1ccccc1-n1cccc12	i
99	COCCN1CC(C(=O)O)CN2CCN(Cc3nccs3)CC2C1 (stereo unspecified)	-2
100	Cc1ccc(NC(=O)Cc2nn(C)c(=O)c3ccccc23)cc1C	-53
101	Cc1noc(C)c1NC(=O)Nc1ccc2c(c1)C(=O)N(C)[C@@H]1CC[C@H](CC(=O)N[C@@H]3CCN(Cc4ccccc4)C3)O[C@H]1CO2	4
102	COc1c2occc2c(OC)c2c(=O)cc(C(F)(F)C(F)(F)F)oc12	0
103	CCCC(=O)N1CC2(CCN(S(=O)(=O)CC)CC2)c2c(n(C)c3cc(OC)ccc23)[C@H]1CO	-63
104	CC(C)[C@H]1CC=CC[C@@H](C)Oc2ccccc2C(=O)N(C)[C@H](Cc2ccccc2)C(=O)N1 (mixture of isomers)	-52
105	Cc1ccc(-c2nc(CCNC(=O)C(=O)Nc3ccc(Cl)cc3)cs2)cc1	51
106	CCCC(=O)Nc1ccc2c(c1)OC[C@H](C)N(S(=O)(=O)c1cn(C)cn1)C[C@@H](C)[C@@H](OC)CN(C)C2=O	43
107	N#C[C@@H]1[C@@H](c2ccccc2C2=CCCC2)[C@H](CO)N1C(=O)NC1CCCCC1	-52
108	Cc1c(CN(C)C2CCCc3ccccc32)c(=O)n(-c2ccccc2)n1C (stereo unspecified)	-1
109	COc1ccccc1C1=NOC(C)(C(=O)NCCc2nc(C(C)(C)C)cs2)C1 (stereo unspecified)	9
110	COc1ccccc1CNC(=O)C[C@H]1CC[C@H]2[C@@H](COC[C@H](O)CN2Cc2ccc3c(c2)OCO3)O1	-36
111	CCOc1ccc(-c2noc(-c3c(O)c4ccc(F)cc4n(C)c3=O)n2)cc1	47
112	CN(CC(O)CO)C(=O)CC12CC3CC(CC(C3)C1)C2 (stereo unspecified)	1

Assay outcomes (PubChem)
